HIV TAR-Tat – TAR RNA-Tat peptide displacers, HIV-1, primary screen, biochemical, FRET, FAM/TAMRA-labeled Tat; HIV-1 TAR RNA, Tat peptide displacement FRET; hits give high values; z-score (concentration not given with the values); 100,000 compounds, 0.6% hits;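 note: score is relative to mean and SD of negative controls; some compounds called inactive have numbers as strong as hits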
CDC25B-CDK2 inh – primary biochemical HTRF screen for blockers of M-phase inducer phosphatase 2 binding to CDK2/cyclin A; P30305+P24941; HTRF CDC25B-CDK2/CyclinA binding, anti-His/anti-Flag; hits give high values; z-score (test concentration not listed); 94,000 compounds, 0.72% hits;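 note: score is relative to mean and SD of negative controls; strong numbers were not always called active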
* hit, by the source's call; . = not tested or not shown.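 Rule for the calls: active = z-score from 3 up in half or more of its runs; inactive = the rest.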

#	mol	HIV TAR-Tat	CDC25B-CDK2 inh
1	O=C(CN1CCN(C(=O)c2ccco2)CC1)Nc1c2c(nc3c1CCC3)CCCC2	.	0.09
2	COc1ccccc1-c1noc(CSc2nnc(-c3ccccc3)n2C)n1	-3.6	-0.93
3	O=C(NCCCN1CCCCC1)C1CCCN1c1nnc(N2CCCC2=O)s1 (centres undefined)	1	-2.7
4	CCOC(=O)CCCCCN1C(=O)c2cccc3cccc(c23)C1=O	0.96	1.2
5	COc1nc(NCC(C)C)nc(Oc2ccc(=O)[nH]n2)n1	-0.71	0.9
6	O=C(NCCCSC1CCCCC1)c1ccc(CS(=O)c2ccccc2)o1 (centres undefined)	0.93	0.38
7	CCc1ccc2ncc(S(=O)(=O)c3ccccc3)c(N3CCN(CC)CC3)c2c1	-1.1	0.04
8	CCOC(=O)CC(=O)CSc1nc(C)c2cc(OCC)ccc2n1	-5.8	-0.61
9	O=[N+]([O-])c1csc(C2Nc3ccccc3N2)c1	.	-0.51
10	C=Cc1c(C)c2cc3[nH]c(cc4nc(cc5nc(cc1[nH]2)C(C)=C5CCC(=O)O)C(CCC(=O)O)=C4C)c(C)c3C=C	1.8	-0.25
11	O=C(C1CC1)N1CCc2cc(Br)cc(S(=O)(=O)NC3CCCCC3)c21	.	-0.72
12	Nc1nc(COc2cccc3cccnc23)nc(Nc2ccc(Cl)cc2)n1	1.5	-1.3
13	O=c1c2oc3nc4c(cc3c2ncn1CCCc1ccccc1)CCCC4	-1.1	.
14	CCCCn1c(C2CCCO2)nc2ccccc21 (centres undefined)	0.27	-1
15	CCN(CC)c1ccc(N=Nc2ccc3c(c2)OCCO3)cc1	.	-2.1
16	C/C(=N\NC(N)=S)c1ccncc1	.	-2
17	O=C(C1CCN(c2nnc(-n3cccc3)s2)CC1)N1CCN(Cc2ccc3c(c2)OCO3)CC1	0.92	0.97
18	CC1CCC(NC(=O)C(=O)Nc2ccc3nc4n(c(=O)c3c2)CCCCC4)CC1 (centres undefined)	0.5	0.35
19	CC(C)(C)C1CCc2c(sc3nc(CCC(=O)NC4CC4)[nH]c(=O)c23)C1 (centres undefined)	0.02	.
20	O=C1CC(c2ccccc2)S(=O)(=O)c2ccccc2N1Cc1ccc(F)cc1 (centres undefined)	0.16	-0.49

(listing goes on)
#	mol	HIV TAR-Tat	CDC25B-CDK2 inh
21	O=c1c(NCc2cccs2)nccn1-c1ccc(F)cc1	0.25	.
22	CCc1nnc2c3ccccc3nc(N3CCN(c4ccc(OC)cc4)CC3)n12	0.68	.
23	CCOC(=O)C1=C(C(C)c2ccccc2)NC(=O)NC1C (centres undefined)	.	-0.2
24	Cc1nc2sccn2c(=O)c1NC(=O)c1c(F)cccc1F	1.6	.
25	O=C(Nc1cccc2nsnc12)C1CCN(S(=O)(=O)N2CCOCC2)CC1	-1.3	.
26	COc1ccc(NC(=O)CSc2nc3ncccc3o2)cc1	-0.31	.
27	O=C(NC1CC1)c1ccc(N2CCCS2(=O)=O)cc1	1.9	.
28	CCOCCCNC(=O)c1cnc(N2CCN(CC)CC2)nc1C	1.3	.
29	Cc1c(-c2ccco2)[n+](=O)c2c(n1[O-])CCCCC2	.	-1.6
30	Cc1ccc(C2=NN(C(=O)CCC(=O)O)C(c3ccc(F)cc3)C2)cc1 (centres undefined)	.	-1.6
31	CC1CCN(c2nc3ccccc3c3nncn23)CC1	4.3	.
32	O=S(=O)(Nc1ccc(N2CCCS2(=O)=O)cc1)c1cc(F)ccc1F	0.72	.
33	O=C1CSc2ccc(S(=O)(=O)N3CCN(C4CCCCC4)CC3)cc2N1	2.9	.
34	CC1CCCCC1NC(=O)CN(C)S(=O)(=O)c1ccc2c(c1)CC(C)N2C(=O)C1CCC1 (centres undefined)	-0.22	.
35	CC1CCN(C(=O)CCc2nnc3ccc(N4CCCC4)nn23)CC1	1	.
36	CC1(C)Cc2nc3oc4c(=O)n(Cc5ccccc5Cl)cnc4c3cc2CO1	1.1	.
37	CCOC(=O)N1CCC(NC(=O)CSc2cc(=O)n(C)c3ccc(Cl)cc23)CC1	-0.73	-2.5
38	C=CCNc1nc(-c2ccc(OC)c(OC)c2)cs1	-1.1	-2.2
39	Cc1c(C2=CCN(S(=O)(=O)c3ccc(Cl)cc3)CC2)c2ccccc2n1C	0.77	0.01
40	COC(=O)c1sccc1NC(=O)CN1c2cccc3cccc(c23)S1(=O)=O	1.8	-1.4

Next results follow:
#	mol	HIV TAR-Tat	CDC25B-CDK2 inh
41	Cc1[nH]c(C)c(S(=O)(=O)NC2CC2)c1C(=O)N1CCCCC1	1.7	.
42	Cc1ccc(Nc2c(-c3ccc4c(c3)OCC(=O)N4)c(=O)c2=O)cc1N(C)C	0.64	.
43	CC1=CC(C)(C)Nc2ccc(OC(=O)c3ccccc3)cc21	-0.48	-1.3
44	Cn1c(=O)c2c(nc(CN3CCOCC3)n2CC(N)=O)n(C)c1=O	2.3	-1.5
45	O=C1c2cccnc2C(=O)N1Cc1ccc(S(=O)(=O)NCc2ccccc2)cc1	0.95	.
46	COc1ccc(C(c2sc3nc(C)nn3c2O)N2CCN(CCO)CC2)cc1 (centres undefined)	.	-0.36
47	O=C(NC1CCCC1)c1nc(-c2ccc(Cl)cc2)n2c1CCCCC2	-0.87	.
48	COc1ccc(C2=NC(c3cccnc3)NC(c3cc(Cl)ccc3O)C2)cc1 (centres undefined)	-0.77	-1.2
49	COc1ccc(-c2cc(C(F)(F)F)nc(-n3ccnc3)n2)cc1	.	-1.3
50	Cc1ccc(CNc2nc(NCCCN3CCOCC3)nc3c2cnn3C)cc1	1.9	.
51	O=C1O[C@@H]2C[C@H]3C[C@@H]2[C@@H]1[C@H]3C(=O)Nc1ccc(C(=O)N2CCCCC2)cc1	-0.19	-1
52	CC(=O)Nc1ccc(OCc2cc(=O)n3nc(C4CC4)sc3n2)cc1	1.3	-0.42
53	CCOc1c(Br)cc(CNCCSc2nnnn2C)cc1OC	2.5	-0.97
54	Cc1cc(C)n(CC(=O)NCCC2=CCCCC2)c(=O)c1C#N	-0.23	2.4
55	COc1ccc2cc(CCNC(=O)C3CC3)c(=O)[nH]c2c1	.	-2
56	CC(C)(C)C(=O)OC1=CN(Cc2ccccc2)S(=O)(=O)c2ccccc21	-0.91	-0.1
57	CCN(CC)S(=O)(=O)c1ccc2c(c1)oc(=O)n2C	-1.1	-1.9
58	O=C(COc1ccccc1)OCC(=O)c1ccc(Br)cc1	-2.3	1.4
59	COc1ccc(N2C(=O)C3C(C2=O)N2CCCN2C3c2ccccc2)cc1 (centres undefined)	2.4	-1
60	COc1ccc(-c2nnc(SCC(=O)Oc3ccccc3)o2)cc1	2	-4.6

More structures
#	mol	HIV TAR-Tat	CDC25B-CDK2 inh
61	Cc1ccc(-c2noc(-c3cccnc3N3CCN(c4ccccc4)CC3)n2)cc1	2.1	-1.4
62	CC(C)(C)c1ccc(S/C(=C/C(=O)O)C(=O)O)cc1	.	-2.3
63	Cc1cc(Cl)ccc1NS(=O)(=O)c1ccc(-c2cnc(C3CC3)o2)cc1	0.15	.
64	Cc1nc(N(C)C)ncc1C(=O)N1CCCC1	1.2	.
65	CCC(Cc1ccccc1)Nc1c(-c2ccccc2)c(=O)c1=O (centres undefined)	1.3	.
66	O=C(CSc1nc2c(c(C(F)(F)F)n1)CCc1ccccc1-2)NCc1cccnc1	1.3	-0.42
67	O=c1cc(CSc2ccccn2)c2ccccc2[nH]1	.	0.21
68	Nc1c(C(=O)Nc2ccc(F)c(F)c2)sc2nc(-c3ccncc3)ccc12	1	0.57
69	O=C(CSc1nncn2c1cc1occc12)Nc1ccc(F)c(Cl)c1	-9.2	.
70	COc1ccc2c(c1)c(=O)oc1c(C)c3occ(C)c3cc12	-0.4	-0.43
71	Cc1cc(C)c2sc(N(CCCN(C)C)C(=O)c3ccco3)nc2c1	-1.1	.
72	OC(CN1CCN(C(c2ccccc2)c2ccccc2)CC1)C(F)(F)F (centres undefined)	.	0.23
73	CCOC(=O)N1CCN(C(=O)c2ccc(C)c(NC3=NC4CS(=O)(=O)CC4S3)c2)CC1 (centres undefined)	-1.2	-2.9
74	CCc1cccc(N2C(=O)N(Cc3cc(=O)n4ccccc4n3)c3ccccc3S2(=O)=O)c1	2	.
75	CC1Cc2ccccc2N1C(=O)CCS(=O)(=O)c1ccc2c(c1)CCN2C(=O)C1CC1 (centres undefined)	0.19	.
76	CSc1ccc(C2c3c(oc4ccccc4c3=O)C(=O)N2c2nncs2)cc1 (centres undefined)	-1.7	-0.27
77	COC(=O)Nc1cc(C)nc2ccccc12	1.1	-1.4
78	O=C(NC(=S)Nc1cc(-c2cccs2)[nH]n1)c1ccccc1	.	-5.8
79	COC(=O)c1cc(-c2ccc(S(=O)(=O)NCc3ccccn3)s2)on1	0.91	.
80	CCc1ccc(C2C(C(=O)OC)=C(C)NC3=C2C(=O)CCC3)s1 (centres undefined)	0.88	0.01

Grouped by structure: the entries above with a CF3 group.
#	mol	HIV TAR-Tat	CDC25B-CDK2 inh
49	COc1ccc(-c2cc(C(F)(F)F)nc(-n3ccnc3)n2)cc1	.	-1.3
66	O=C(CSc1nc2c(c(C(F)(F)F)n1)CCc1ccccc1-2)NCc1cccnc1	1.3	-0.42
72	OC(CN1CCN(C(c2ccccc2)c2ccccc2)CC1)C(F)(F)F (centres undefined)	.	0.23

Another view of some results above.
69) O=C(CSc1nncn2c1cc1occc12)Nc1ccc(F)c(Cl)c1
77) COC(=O)Nc1cc(C)nc2ccccc12
70) COc1ccc2c(c1)c(=O)oc1c(C)c3occ(C)c3cc12
61) Cc1ccc(-c2noc(-c3cccnc3N3CCN(c4ccccc4)CC3)n2)cc1
compound no. | 69 | 77 | 70 | 61
HIV TAR-Tat | -9.2 | 1.1 | -0.4 | 2.1
CDC25B-CDK2 inh | . | -1.4 | -0.43 | -1.4

Following part
#	mol	HIV TAR-Tat	CDC25B-CDK2 inh
81	COc1ccc(-c2c(O)c3c(OC)c4c(cc3oc2=O)OC(C)(C)CC4)cc1	1.3	.
82	CCOC(=O)C1=C(C)NC2=C(C(=O)C(C(=O)OC)C(C)C2)C1c1cccc(F)c1 (centres undefined)	2.9	-1.3
83	Nc1nc(CN2CCN(c3ccccc3)CC2)nc(Nc2ccc(Oc3ccccc3)cc2)n1	1.8	.
84	Cc1nn(-c2cc(C)c3ccccc3n2)c2c1C1C(C2)C1(C)C (centres undefined)	1	-1.5
85	CCOc1ccc(OCC)c(Nc2nc3ccc(C)cc3n3nnnc23)c1	-0.14	.
86	CCOC(=O)c1noc2nc(C)nc(N(C)C3CCCCC3)c12	1.6	.
87	CN(CCc1ccccn1)C(=O)c1nccnc1C(=O)O	.	1.6
88	COc1cccc(Oc2ccc(NC(=O)c3cc4cc(Br)ccc4o3)cn2)c1	-9	-2
89	O=c1[nH]c(O)c(C(c2ccc(F)cc2)N2CCCC2)c(=O)[nH]1 (centres undefined)	.	-1.1
90	O=C(Nc1ccc2c(c1)OCO2)C1CCN(S(=O)(=O)c2cccnc2)CC1	0.3	-2
91	Cc1cc(NS(=O)(=O)c2cc(-c3csc(C)n3)ccc2C)no1	1.2	.
92	CC1CCCC(C)N1S(=O)(=O)c1ccc(NC2=NS(=O)(=O)c3ccccc32)cc1 (centres undefined)	0.72	-0.54
93	COC(=O)C1=C(Sc2ccc(Cl)cc2)CSC1	.	-2.3
94	CCOc1ccccc1NS(=O)(=O)c1ccc(-c2ccc(=O)[nH]n2)o1	1.9	.
95	COc1cc(/C=C2/SC(=S)N(CC(=O)O)C2=O)ccc1OC(=O)c1ccc([N+](=O)[O-])cc1	.	-0.46
96	Cn1nnnc1SCC(=O)Nc1ccc(OC(F)(F)F)cc1	.	-2.1
97	O=C1CN(C(=O)OCc2ccccc2)CCN1	.	-1.6
98	O=S1(=O)N(Cc2ccccc2F)CCN1Cc1ccccc1Cl	-1.2	.
99	CCOC(CNC(=O)[C@H](Cc1ccccc1)NC(C)=O)OCC	.	-0.65
100	O=C(c1cnn(-c2ccc(F)cc2)c1-n1cccc1)N1CCN(c2cccc(Cl)c2)CC1	0.66	.

Following part
#	mol	HIV TAR-Tat	CDC25B-CDK2 inh
101	O=C1CC(c2ccccc2Cl)Sc2ccccc2N1 (centres undefined)	0.75	-0.04
102	Cc1cccc(Nc2nc3nonc3nc2N2CCOCC2)c1C	0.45	-1.6
103	O=C(CS(=O)(=O)c1cccc2nsnc12)N1CCN(c2cccc(Cl)c2)CC1	1.8	.
104	N#Cc1c(-c2ccc(Cl)cc2)cc(-c2ccccc2)[nH]c1=S	0.91	-3.1
105	CCC(C)NC(=O)C(=O)Nc1ccc2nc3n(c(=O)c2c1)CCCCC3 (centres undefined)	2.3	-0.86
106	CN(CC(=O)Nc1ccc(Br)cc1)S(=O)(=O)c1cccc2nsnc12	.	-1.2
107	O=C(Nc1ccc2c(c1)OCO2)c1ccncc1	0.62	-0.17
108	COC(=O)C(Cc1c[nH]c2ccccc12)NC(=O)C(=O)c1c[nH]c2ccccc12 (centres undefined)	.	-1.3
109	CC(C)Cc1nn2cc(-c3ccccc3)nc2s1	1.1	0.27
110	CCOc1ccc(N2C(=O)C3C4c5ccccc5C(C)(c5ccccc54)C3C2=O)cc1 (centres undefined)	0.78	-0.15
111	COc1ccc(/C=C2\SC(=S)N(CCC(=O)Nc3nc4ccccc4s3)C2=O)cc1OC	.	-15
112	CCOC(=O)C1=C(C)N=C2SCCC(=O)N2C1c1ccc(C(C)(C)C)cc1 (centres undefined)	-0.07	0.66
113	O=C(Oc1ccc(-c2nnco2)cc1)N1CCCCC1	-0.27	-0.86
114	Cc1ccccc1OCCSCc1nc2ccccc2[nH]1	-0.18	-2.6
115	CCNC(=O)c1c(N2CCCC2=O)c2cc(F)ccc2n1C	-0.01	.
116	ClC1(Cl)CC1CSC1=NCCN1 (centres undefined)	.	-1.6
117	CC(=O)N1c2ccc(S(=O)(=O)N3CCCCC3)cc2CC1C(=O)NCCC1=CCCCC1 (centres undefined)	1.5	.
118	CC(C)CC(NS(=O)(=O)c1ccc2[nH]c(=O)ccc2c1)C(=O)N1CCCCC1 (centres undefined)	1.1	.
